# INS promoter inh – TRM-6 insulin promoter activity inhibition; TRM-6 cells (human fetal islet line), insulin promoter-eGFP reporter, imaging; reporter expression induced with tamoxifen; inhibition, % at 2 µM; AID 1273; 130,000 tested, 0.9% active;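 active = inhibition above the mean plus 3 SD, with well images judged a real hit on visual review, cut at about 60% in these data, passing the limit was not always enough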
# RGS16-Gao – regulators of human RGS16-Galphao interaction; O15492+P09471; bead-based flow cytometry RGS16-Galphao binding, fluorescence; actives lie on both sides; binding response (% of control), % at 10 µM; 220,000 tested, 0.38% active; AID 1441;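 active = below 25% or above 175%, edge rows of some plates excepted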;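 note: Galphao activated by GDP with aluminum fluoride before binding; 100% = wells without compound and 0% = beads without RGS; some results beyond the cut were filed as inactive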
# Target sequence (O15492 whole entry, looked up): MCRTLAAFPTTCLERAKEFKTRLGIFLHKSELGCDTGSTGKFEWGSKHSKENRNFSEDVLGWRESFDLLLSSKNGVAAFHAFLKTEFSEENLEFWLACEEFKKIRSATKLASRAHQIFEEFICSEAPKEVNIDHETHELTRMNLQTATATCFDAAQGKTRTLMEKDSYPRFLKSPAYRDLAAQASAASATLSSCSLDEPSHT
# Target sequence (P09471 whole entry, looked up): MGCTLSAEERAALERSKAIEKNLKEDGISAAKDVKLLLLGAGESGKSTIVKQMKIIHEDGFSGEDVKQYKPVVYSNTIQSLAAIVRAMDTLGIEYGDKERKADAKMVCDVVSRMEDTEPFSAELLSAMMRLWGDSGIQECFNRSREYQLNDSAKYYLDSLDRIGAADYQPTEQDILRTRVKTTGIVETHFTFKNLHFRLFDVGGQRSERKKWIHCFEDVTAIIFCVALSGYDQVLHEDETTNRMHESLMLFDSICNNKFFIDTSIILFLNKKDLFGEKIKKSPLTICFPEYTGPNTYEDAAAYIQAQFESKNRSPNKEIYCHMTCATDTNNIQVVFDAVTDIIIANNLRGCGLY
# PKD1 inh – blocks activity of human protein kinase D1; 200,000 tested, 0.056% active; PKD1 kinase fluorescence polarization assay; AID 797; inhibition, %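 (about 10 µM by stock and volumes)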;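 active = inhibition of 50% or more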;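 note: controls were vehicle for no effect and a reference inhibitor for full effect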
# GALR2 ag – activates the human galanin receptor 2. GALR2-expressing cells, agonist activation read-out. activation, %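 (tested at 5 µM)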. 140,000 tested, 0.48% active. AID 803;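 active = above mean plus 3 SD of all compounds, about 5% in these data, not always enough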;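 note: 0% = vehicle buffer wells and 100% = reference agonist at full effect; tested in CHO reporter cells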
# Target sequence (O43603 whole entry, looked up): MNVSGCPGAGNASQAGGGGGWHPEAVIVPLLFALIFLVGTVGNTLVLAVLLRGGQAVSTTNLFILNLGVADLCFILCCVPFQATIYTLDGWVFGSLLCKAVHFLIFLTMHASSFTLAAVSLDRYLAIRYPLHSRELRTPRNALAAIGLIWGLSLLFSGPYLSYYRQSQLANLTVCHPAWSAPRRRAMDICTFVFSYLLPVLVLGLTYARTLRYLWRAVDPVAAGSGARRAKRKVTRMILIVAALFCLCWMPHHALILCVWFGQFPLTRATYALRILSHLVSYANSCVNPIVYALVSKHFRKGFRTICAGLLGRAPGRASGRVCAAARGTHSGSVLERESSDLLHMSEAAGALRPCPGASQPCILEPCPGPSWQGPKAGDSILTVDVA
# HSV augment – HSV replication enhancement; HSV replication augmentation in cells, fold increase; maximum fold increase; 220,000 tested, 0.005% active;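 active = peak rise of 1.5-fold or more in the series; tested in PC3 cells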;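 note: first round at 10 µM; read as green reporter fluorescence; hits show the peak of a series up to 25 µM; 1 = signal of infected wells without compound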
# INS promoter inh cell count – further read-out of INS promoter inh, marked with its call; normalized cell count, %; measured here: cell count, toxicity; reference of the scale not given here;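 cells exposed to compound for 48 h; stained nuclei by imaging scaled within each plate; lower means fewer cells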
# HSV augment primary fold – further read-out of HSV augment, marked with its call; fold increase; compound at 10 µM; measured here: primary screen fold increase 10 uM; tested in PC3 cells;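 GFP signal in the first replicate; 1 = infected wells without compound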
# Starred values were filed as active, the others as inactive; i = inactive; . = no result given. This is a subset (hit frequency here may not be typical).
SMILES,INS promoter inh,INS promoter inh cell count,RGS16-Gao,PKD1 inh,GALR2 ag,HSV augment,HSV augment primary fold
Cc1cccc(OP(=O)(Nc2ccc(F)cc2)Oc2cccc(C)c2)c1,.,.,102.0,-7.9,.,i,1.02
O=C(C(=O)N1CCC2(CC1)OCCO2)c1c[nH]c2ccccc12,5.9,124.6,105.8,-10.4,.,i,0.99
c1ccc2c(c1)CNc1ccccc1O2,9.7,110.2,102.5,0.7,-1.1,i,0.977
CCCCCCC(N)CC(=O)O (stereo not given),17.5,55.8,105.2,-8.3,0.2,i,0.78
CCOP(=O)(OCC)C(NC(=O)NC)C(N)=O (stereo not given),.,.,106.3,.,.,i,1.07
CN(C)c1ccc(-[n+]2c(-c3ccccc3)cc(-c3ccccc3)cc2-c2ccccc2)cc1,.,.,92.8,-5.5,.,i,0.68
CN1/C(=C\C=C\C2=[N+](C)c3ccc4ccccc4c3C2(C)C)C(C)(C)c2ccccc21,-151.3,52.7,80.9,19.8,1.3,i,0.75
Cc1ccc(C2=NCC(=O)N(CC(=O)N3CCCCC3)c3sc(C)c(C)c32)cc1,-13.3,105.0,102.0,-8.0,-2.0,i,1.03
Cc1ccc(C2=CCNCC2)cc1,.,.,95.6,0.9,.,i,0.93
CCOC(=O)C(C)Oc1cc(C)cc2oc(=O)c3c(c12)CCCC3 (stereo not given),17.4,72.7,100.6,-3.4,-0.7,i,0.87
FC(F)(F)c1cccc(N2CCNCC2)c1,.,.,99.7,.,.,i,0.66
O=C(Cc1ccccc1)N1CCN(CC2CC3C=CC2C3)CC1 (stereo not given),36.0,66.7,99.3,-0.8,-0.3,i,0.71
Clc1ccccc1C1NCc2ccccc2-n2cccc21 (stereo not given),.,.,92.2,-0.7,.,i,1.13
Cc1ccc(NC2=NCCCS2)c(C)c1C,-25.8,103.1,107.6,-8.5,-0.1,i,0.97
CC(=O)Nc1ccc(OC(=O)c2ccccc2N)cc1,0.0,100.0,99.4,-5.2,-1.9,.,.
C=CCN(c1ccc(C(=O)N(CC)CC)cc1)S(C)(=O)=O,-7.0,99.1,51.9,-6.3,-3.3,i,0.99
Cn1cccc1/C=C1/C(=O)NC(=O)N(Cc2ccccc2)C1=O,2.6,100.7,91.5,-7.2,-0.3,i,0.89
Cc1ccc2nc(C)n(-c3ccc(F)cc3)c(=O)c2c1,41.2,117.4,100.7,-4.8,.,i,0.97
CC(C)n1c(=O)c(C=Nc2ccc(Cl)cc2)c(O)n(Cc2ccco2)c1=O,6.7,95.0,97.0,-2.2,-0.6,i,1.18
CCc1ccc(-n2c(O)c(C(C)=O)c(=O)[nH]c2=O)cc1 (tested in a mixture with another compound),.,.,85.0,.,.,i,0.96
O=c1c2ccccc2nc(-c2ccco2)n1-c1ccc(Br)cn1,-18.2,96.9,105.8,-5.6,-2.9,i,0.89
CC12CNCC(C)(CNC1)C2O (stereo not given),-17.9,87.8,112.2,-3.1,-0.4,i,1.1
Oc1cccc(/C=N/NP(=S)(c2ccccc2)c2ccccc2)c1,.,.,103.4,-9.5,-1.8,i,0.96
Cc1cc(OCCCC(=O)NCc2cccs2)ccc1Cl,-19.5,69.1,109.9,7.5,-1.3,i,0.97
CCOc1ccc(N=Cc2c(O)n(CCc3ccc(OC)c(OC)c3)c(=O)[nH]c2=O)cc1,.,.,103.0,.,.,i,0.61
CCCCC(CC)CNCC(O)c1ccccc1 (stereo not given),.,.,104.1,4.2,.,i,0.91
COc1cc(OC)c(C=O)c(OC(=O)N(C)C)c1,11.6,121.0,99.0,2.0,.,i,1.17
O=P(O)(Oc1ccccc1)OC(c1ccccc1)C(F)(F)C(F)(F)F (stereo not given),.,.,107.4,3.0,.,i,1.02
Cc1ccc(P(=S)(c2ccc(C)o2)N2CCOCC2)o1,.,.,100.9,-4.9,0.4,i,0.82
CN1CCN(CCC(=O)OC2CC3CCC(C2)N3C)CC1 (stereo not given),6.2,155.3,114.9,1.2,-1.2,i,1.15
CN1CCCCC1c1ccc(-c2cccnc2)nc1 (stereo not given),.,.,88.3,1.7,.,i,0.78
C=CCn1c(O)c(C(C)=NCCc2c[nH]c3ccccc23)c(=O)[nH]c1=O,.,.,100.1,.,.,i,0.96
OC(COCc1ccc(Cl)cc1)CN1CC=C(c2ccccc2)CC1 (stereo not given),-9.4,110.6,112.3,-7.6,-1.4,i,0.67
Cc1ccc(N2C(=O)NC(=O)/C(=C/c3cnc(-c4ccccc4)nc3)C2=O)cc1C,-17.2,78.3,101.5,-5.1,-0.9,.,.
Cn1cc(C=C(C#N)C#N)c2ccccc21,.,.,109.5,-7.2,.,i,0.95
CC(C)CN(C(=O)CN1CC=C(c2ccccc2)CC1)c1c(N)n(CC(C)C)c(=O)[nH]c1=O,-31.2,79.9,101.1,-0.8,.,i,1
O=C(CCl)NCC1CCCO1 (stereo not given),.,.,96.5,-2.8,.,i,0.99
N#CC(C#N)=Cc1ccc(C=C(C#N)C#N)cc1,.,.,101.5,.,.,i,1.19
CCOc1ccc(-n2c(O)c(C=Nc3ccc(NC(C)=O)cc3)c(=O)[nH]c2=O)cc1,.,.,101.0,.,.,i,0.84
CCC1CN(C)CCC1(OC(C)=O)c1ccccc1 (stereo not given),-126.7,106.4,98.5,-3.7,-1.9,i,1

# Among those listed so far, these have a furan ring, fused or not:
SMILES,INS promoter inh,INS promoter inh cell count,RGS16-Gao,PKD1 inh,GALR2 ag,HSV augment,HSV augment primary fold
CC(C)n1c(=O)c(C=Nc2ccc(Cl)cc2)c(O)n(Cc2ccco2)c1=O,6.7,95.0,97.0,-2.2,-0.6,i,1.18
O=c1c2ccccc2nc(-c2ccco2)n1-c1ccc(Br)cn1,-18.2,96.9,105.8,-5.6,-2.9,i,0.89
Cc1ccc(P(=S)(c2ccc(C)o2)N2CCOCC2)o1,.,.,100.9,-4.9,0.4,i,0.82

# Later entries:
SMILES,INS promoter inh,INS promoter inh cell count,RGS16-Gao,PKD1 inh,GALR2 ag,HSV augment,HSV augment primary fold
Cc1cc(Cl)ccc1C(=O)C1CCCN(C2CCSCC2)C1 (stereo not given),.,.,102.2,3.8,.,i,0.97
CC12CN3CC(C)(CN(C1)P3(=O)Oc1ccccc1)C2=O (stereo not given),3.2,80.1,112.8,4.2,-2.4,i,0.99
CN(C)c1ccc(C=C2C(=O)NC(=O)NC2=O)cc1[N+](=O)[O-],.,.,73.3,-7.8,.,i,0.9
O=C(c1ccc(N2CCCCC2)c([N+](=O)[O-])c1)N1CCC2(CC1)OCCO2,.,.,101.6,-1.9,.,i,0.95
Cn1c(O)c(N=Nc2ccc(S(=O)(=O)N3CCOCC3)cc2)c(=O)n(C)c1=O,.,.,99.9,1.0,0.0,i,0.76
Cc1cc(N(CCCl)CCCl)ccc1/C=N/NC(=O)c1ccco1,20.0,63.6,99.1,-11.9,-0.9,.,.
CCC1(CC)C(=O)NC(=NCCc2c[nH]c3ccccc23)NC1=O,.,.,100.6,2.4,-1.0,i,0.97
O=C(c1cccs1)C1CN2CCC1CC2 (stereo not given),25.0,144.7,99.5,-4.4,-0.1,i,1.08
CC12CN3CC(C)(CN(C1)C3c1cccs1)C2 (stereo not given),-100.0,93.6,99.4,0.7,-2.8,i,0.94
CCN1c2nc3c(C)cccn3c(=O)c2CC2(C(=O)N(C)C(=O)N(C)C2=O)C1C (stereo not given),57.1,79.0,92.0,-6.2,-0.9,i,1.06
CN(C(=O)Oc1ccc(Cl)c2cccnc12)c1ccccc1,-66.7,114.9,101.5,-12.4,-0.1,i,0.86
CCC(=NCCOc1ccc(Cl)cc1)c1c(O)n(C)c(=O)n(C)c1=O,22.2,81.0,174.7,-5.6,-3.1,.,.
COC(=O)C(=O)N1CC2(C)CNCC(C)(C1)C2=O,.,.,102.6,4.2,.,i,0.9
Cc1nonc1OCCNCCNc1ccc([N+](=O)[O-])c2cccnc12,-43.3,99.6,107.1,-2.4,0.1,i,0.82
CC[N+]1(C)CCCC(OC(=O)C(O)(c2ccccc2)c2ccccc2)C1 (stereo not given),-295.2,82.0,107.7,-1.8,-1.6,i,0.96
COc1ccc2c(c1OC)C(=O)OC2c1c(O)n(Cc2ccc(F)cc2)c(=O)[nH]c1=O (stereo not given),-64.9,90.8,91.9,2.5,-0.4,i,1.03
COc1ccc(-c2nn(CCC#N)cc2C(=O)O)cc1,.,.,99.8,6.8,.,i,0.95
Cc1ccccc1NC(=O)NCCN1CC1,.,.,102.5,.,.,i,0.75
O=c1[nH]c(O)c(Cc2ccc3c(c2)OCO3)c(=O)[nH]1,.,.,89.6,.,.,i,0.94
Cc1ccc(N(C)C(=O)Oc2cccc3ccc(C)nc23)cc1,-25.6,167.6,106.2,-3.5,-0.3,i,0.83
CCC(=NCCO)c1c(O)n(-c2ccc(Cl)cc2)c(=O)[nH]c1=O,14.3,127.9,101.7,-1.4,-0.6,i,0.83
Cc1ccc(-c2nn(CCC#N)cc2C(=O)O)cc1C,.,.,99.4,-3.4,.,i,1.03
Cc1cccc(-n2c(-c3ccccc3)nc3ccccc3c2=O)n1,.,.,94.4,-5.5,.,i,0.94
CCN(CC)CCCN=Cc1c(O)n(-c2ccccc2F)c(=O)[nH]c1=O,11.8,67.5,112.4,-8.7,-1.5,i,1.04
Cn1c(O)c(C(=Nc2ccc(F)cc2)c2ccccc2Cl)c(=O)n(C)c1=O,.,.,106.8,.,.,i,1.09
O=c1[nH]c(=O)n(C2CCCCC2)c(O)c1C=Nc1ccc(N2CCOCC2)cc1,30.8,123.8,99.1,6.2,-1.0,.,.
Cc1c(C(c2ccc(Br)cc2)c2c(O)c3ccccc3oc2=O)c(=O)n(-c2ccccc2)n1C (stereo not given),46.7,116.7,107.6,3.5,.,i,0.99
O=C(OCC(=O)c1ccc([N+](=O)[O-])cc1)/C(=C\c1ccc(Cl)cc1)NC(=O)c1ccccc1,.,.,99.2,1.9,-3.0,i,0.98
CCCCC/C(=N/O)c1c(C)[nH]c2ccccc12,.,.,98.2,.,.,i,1.06
CCCCC(=O)N/N=C/c1c(O)n(Cc2ccco2)c(=O)[nH]c1=O,.,.,100.1,-5.7,-0.7,.,.

# Complete entries, looked up by structure.
# Entry for Cn1c(O)c(N=Nc2ccc(S(=O)(=O)N3CCOCC3)cc2)c(=O)n(C)c1=O → INS promoter inh: .; INS promoter inh cell count: .; RGS16-Gao: 99.9; PKD1 inh: 1.0; GALR2 ag: 0.0; HSV augment: i; HSV augment primary fold: 0.76
# Entry for Cc1ccc(NC2=NCCCS2)c(C)c1C → INS promoter inh: -25.8; INS promoter inh cell count: 103.1; RGS16-Gao: 107.6; PKD1 inh: -8.5; GALR2 ag: -0.1; HSV augment: i; HSV augment primary fold: 0.97
# Entry for OC(COCc1ccc(Cl)cc1)CN1CC=C(c2ccccc2)CC1 (stereo not given) → INS promoter inh: -9.4; INS promoter inh cell count: 110.6; RGS16-Gao: 112.3; PKD1 inh: -7.6; GALR2 ag: -1.4; HSV augment: i; HSV augment primary fold: 0.67

# (list continues)
SMILES,INS promoter inh,INS promoter inh cell count,RGS16-Gao,PKD1 inh,GALR2 ag,HSV augment,HSV augment primary fold
CC(=O)OC1(c2ccccc2)CCN(C2CCCCC2)CC1C (stereo not given),.,.,109.2,7.8,.,i,1.01
COc1ccc(CN2C(=O)NC(=O)/C(=C\c3cccc(OC)c3OC)C2=O)cc1,37.5,86.6,97.6,3.3,.,i,1.09
Cc1nc2ccccc2c(=O)n1-c1ccccc1[N+](=O)[O-],-47.4,104.8,102.7,-1.9,.,i,1
CN1CCN(/N=C/c2c(O)n(C)c(=O)n(C)c2=O)CC1,9.5,102.8,97.9,-8.1,.,i,1.15
Cc1c(C(=O)N2CCC3(CC2)OCCO3)oc2ccc(S(=O)(=O)N3CCOCC3)cc12,21.1,121.7,102.1,-5.2,-1.2,i,0.98
CCC(C)n1c(O)c(C=NCCc2ccccc2)c(=O)[nH]c1=S (stereo not given),.,.,96.0,.,.,i,0.99
C=Cn1ccnc1P(O)(=S)c1nc(C)c(CCOC(C)=O)s1 (stereo not given),-2.9,90.8,104.2,-9.1,.,i,1.08
CCN1CCC2(CC1)NC(CO)(CO)CO2,-17.9,150.5,107.0,-10.2,0.2,i,0.96
CSCc1nnc2n1-c1ccc(Cl)cc1C(c1ccccc1)=NC2,44.4,57.1,59.0,-1.0,0.0,i,0.92
CCN(CC)C(=O)c1ccc2c(c1)C1C(Cl)C(Sc3ccccc3[N+](=O)[O-])CC1C(C(=O)O)N2 (stereo not given),.,.,100.5,.,.,i,0.91
COc1ccc(-c2nc(CS(=O)CC(=O)N3CCC4(CC3)OCCO4)c(C)o2)cc1 (stereo not given),-14.3,94.3,101.2,-0.4,-0.6,i,0.93
CCCCC(=O)N/N=C/c1c(O)n(CCc2ccccc2)c(=O)[nH]c1=O,.,.,97.6,.,.,i,0.85
CCCCn1c(=O)c(C(=O)Nc2ccccc2S(N)(=O)=O)c(O)c2ccccc21,-83.9,111.6,102.3,-10.9,-0.8,i,0.97
Cc1nn(Cc2c(Cl)cccc2Cl)c(Cl)c1C(=O)O,.,.,103.2,-4.7,.,i,0.97
